AID504770: growth inhibitors of E. coli YBA685 in a screen for V. cholerae RctB (chromosome II replication) inhibitors. E. coli YBA685 rctB-dependent plasmid, OD600 growth, 3 h; hits give low values. z-score (concentration not given with the values). 130,000 compounds, 0.27% hits. AID 504770;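 active = z-score under -2 on both plates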;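 also: wells of about 30 µL received 100 nL stock; score is relative to mean and SD of the test wells; the first replicate is given; strong numbers were not always called active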
Ba CapD inh: CapD enzyme inhibition; 140,000 compounds, 0.23% hits; z-score (no concentration beside the values); purified CapD enzyme, fluorescence intensity read-out; hits give low values; some hits fall short of the stated cut;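 active = z-score under -4 in either of two replicates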;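 also: stock transfer was 100 nL into about 40 µL; score is relative to mean and spread of the plate; one replicate is shown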
Numbers without * were called inactive; i = inactive; . = no result given. Not all compounds are listed; rates above refer to the full screens.

canonical_smiles,AID504770,Ba CapD inh
CCOC(=O)CCSc1cc(-n2cccc2)c(Cl)cc1[N+](=O)[O-],.,-0.28
COCCCNc1cc(C)nc2ccccc12,-0.05,.
NC(=O)c1c(NC(=O)CN2C(=O)/C(=C/c3ccc(Cl)cc3Cl)SC2=S)sc2c1CCCC2,.,-0.15
O=C(COc1ccc2c(c1)CCC2)N(Cc1cccnc1)c1ccc2c(c1)OCO2,0,.
CN(C(=O)COc1ncnc2sccc12)C1CCCCC1,1.3,.
CCCc1ccc(S(=O)(=O)N2CCN(C(C)c3ccccc3)CC2)cc1 (stereo not drawn),.,0.39
CCN1C[C@]2(COC)CC[C@H](O)[C@@]34C5C[C@H]6C(OC)C5[C@](O)(C[C@H]6OC)C(O)(C(OC)C23)[C@@H]14 (stereo partly drawn),.,-0.2
O=S(=O)(NCc1ccc(OC(F)(F)F)cc1)c1cccc2nonc12,.,-0.13
Cc1c(C(=O)N2CCCC2)c(S(=O)(=O)Nc2ccccc2)c(C)n1C,-0.25,0.12
CN1CCN(Cc2cn3ccccc3n2)CC1,-0.35,.
Cc1cccc(/C=N/n2c(C)cc(C)c(C#N)c2=O)c1,0.85,-0.21
Cn1cccc1/C=C1\CC(c2ccccc2)C/C(=C\c2cccn2C)C1=O (stereo not drawn),-0.8,-0.81
COc1ccc(NC(=O)CN(C)CC(=O)Nc2ccc(N3CCOCC3)cc2)cc1,1.3,.
S=C1NCN(CCc2ccccc2)CN1,-0.9,9.4
COc1ccc(C(=O)c2c(N)sc3c2CCN(Cc2ccccc2)C3)cc1,-0.5,1.6
CC(Oc1ccccc1)C(=O)N=Nc1c(O)[nH]c2ccc(Br)cc12 (stereo not drawn),0.7,0.43
CC(=O)Nc1ccc2nc(SCc3ccccc3C#N)sc2c1,0.6,.
COC(=O)c1sccc1NC(=O)c1ccc(F)cc1,0.3,0.92
O=C(/C=C/c1ccc(-c2ccc(F)cc2)o1)N1CCCC1,1.3,3.8
CC(C)N1CCC(NC(=O)NC2CCCCC2)CC1,-0.95,-0.56
COC(=O)CSC1=C(C#N)C2(CCCCC2)C(c2nc(-c3ccccc3)cs2)C(N)=N1 (stereo not drawn),0.4,-0.83
O=C(Nc1nc2c(Cl)cccc2s1)C1CC1,-1.1,i
Cc1nccn1C(=O)c1cc2ccccc2oc1=O,-1.4,.
Cc1c(Cl)cccc1-n1ccn(CC#N)c(=O)c1=O,2.5,.
c1ccc(-c2nc3ccccc3nc2N2CCCCC2)cc1,-0.5,.
N#CC1=C(N)SC(N)=C(C#N)C12C(=O)Nc1ccccc12,.,-0.14
CCN(CC)C(=O)c1sc2ncnc(N3CCN(c4ccccc4OC)CC3)c2c1C,.,0.52
CNC(C)Cc1ccc2c(c1)OCO2 (stereo not drawn),.,1
CCOC(=O)c1sc2nc3c(cc2c1NC(=O)c1ccccc1)COC(C)(C)C3,-0.65,0.99
O=C(CC(Nc1ccccc1)c1ccccc1)C1CC1 (stereo not drawn),.,-0.32
C=CCc1cccc(/C=N/n2c(-c3ccccc3C)n[nH]c2=S)c1O,2.6,-1.7
CC1CCCC(C)N1C(=O)c1ccccc1N (stereo not drawn),-0.15,.
FC(F)(F)c1cnc(-c2cnn(-c3ccccc3Cl)c2)c(Cl)c1,.,-0.18
CCOC(=O)C1=C(C)NC2=C(C(=O)C(C(=O)OCC)C(c3ccccc3OC)C2)C1c1cccs1 (stereo not drawn),.,0.65
COc1cc(C(=O)OCc2cc3ccccc3nc2Cl)cc2c1OCCO2,-0.95,.
COC(=O)c1ccc(C(=O)Nc2nc(-c3ccncc3)cs2)cc1,-1.1,-0.61
O=C(CCn1c(=O)oc2ccccc21)NCc1ccco1,-0.15,-0.045
COc1ccc(-c2cc(-c3ccco3)nn2-c2nc(-c3ccc(Cl)cc3)cs2)cc1,0.6,.
CCOC(=O)c1cnc2ccccc2c1NCCc1ccccc1,-0.8,-0.25
COc1ccc(N2CC(O)(c3ccc(OC)cc3)[N+]3=C2CCCC3)cc1 (stereo not drawn),.,0.33

Molecules listed so far that contain a cyano group, in the order listed:
canonical_smiles,AID504770,Ba CapD inh
Cc1cccc(/C=N/n2c(C)cc(C)c(C#N)c2=O)c1,0.85,-0.21
CC(=O)Nc1ccc2nc(SCc3ccccc3C#N)sc2c1,0.6,.
COC(=O)CSC1=C(C#N)C2(CCCCC2)C(c2nc(-c3ccccc3)cs2)C(N)=N1 (stereo not drawn),0.4,-0.83
Cc1c(Cl)cccc1-n1ccn(CC#N)c(=O)c1=O,2.5,.
N#CC1=C(N)SC(N)=C(C#N)C12C(=O)Nc1ccccc12,.,-0.14

In a second layout: entries from further up.
CNC(C)Cc1ccc2c(c1)OCO2 (stereo not drawn)
  AID504770: . | Ba CapD inh: 1

CCOC(=O)c1sc2nc3c(cc2c1NC(=O)c1ccccc1)COC(C)(C)C3
  AID504770: -0.65 | Ba CapD inh: 0.99

O=C(CC(Nc1ccccc1)c1ccccc1)C1CC1 (stereo not drawn)
  AID504770: . | Ba CapD inh: -0.32

C=CCc1cccc(/C=N/n2c(-c3ccccc3C)n[nH]c2=S)c1O
  AID504770: 2.6 | Ba CapD inh: -1.7

(listing goes on)
canonical_smiles,AID504770,Ba CapD inh
NC(=O)CSc1ncnc2sc3c(c12)CCC3,0.5,.
COC(=O)CNC(=O)c1ccn[nH]1,-1.6,0.3
CCCCN=C1SC(CC(=O)Nc2ccccc2C)C(=O)N1CCCC (stereo not drawn),-0.55,.
c1ccc(-c2[nH]ncc2-c2ccncc2)cc1,.,-0.6
Cc1ccc(S(=O)(=O)N(C(=O)C2CCCCC2)c2ccc3oc(=O)sc3c2)c(C)c1,0.6,-1.2
CS(=O)c1ccc2c(c1)NC(=O)CS2 (stereo not drawn),1.3,0.41
Cc1ccc(Nc2coc3ccc4c(C)cc(=O)oc4c23)cc1,.,-0.33
CC1(C)C2CC=C(CCOC(=O)N3CCC4(CC3)C(=O)NCN4c3ccccc3)C1C2 (stereo not drawn),.,-0.38
COc1cc(-c2nc(C=Nc3cccc(Cl)c3C)c(O)o2)cc(OC)c1OC,.,0.085
CN(C)Cc1c(O)ccc2cc(-c3nc4ccccc4n3C)c(=O)oc12,0.3,11
Cc1cc(C(=O)COC(=O)c2ccc3c(c2)C(=O)N(CCC(C)C)C3=O)c(C)n1Cc1cccs1,0,.
O=C(Nc1ccc(S(=O)(=O)N2CCCC2)cc1)Nc1ccc(F)cc1F,0.05,-0.18
O=C(O)CCCC(=O)Nc1ccc(C(=O)N2CCCCC2)cc1,1.6,.
CC(C)c1ccc(NC(=O)c2cnccn2)cc1,-0.8,-0.85
Nc1c(-c2ccc(Cl)cc2)cnc2nc(SC/C=C/c3ccccc3)nn12,.,3.8
CCOC(=O)N1CCN(CC(=O)NCCc2ccc(Cl)cc2Cl)CC1,-0.7,.
Cn1nnc(C(O)CNCc2ccc(F)cc2)n1 (stereo not drawn),1.1,.
CS(=O)c1scc(-c2ccc(Cl)cc2)c1C#N (stereo not drawn),-0.55,0.33
Cc1ccc(NC(=O)Cn2c(CC3CCS(=O)(=O)C3)nc3ccccc32)cc1C (stereo not drawn),-0.35,.
Nc1ncnc2c1nc(SCC(=O)O)n2Cc1ccccc1,0.5,11
COc1ccc2c(c1)-c1c(ssc1=Nc1cccc(C)c1C)C(C)(C)N2,.,-1.3
CCc1cc(=O)oc2cc3occ(C)c3cc12,0.55,1.9
Cn1cc(NC(=O)NCCCN2CCCCC2)c2ccccc2c1=O,0.45,3.1
CCC(C)Sc1nc(O)cc(=O)n1-c1ccccc1 (stereo not drawn),-0.75,0.19
O=C(OCCN1CCN(Cc2ccc(N3CCCC3)cc2)CC1)N1CCN(c2ccc(C(F)(F)F)cc2)CC1,.,-0.73
CC(C)(C)C(=O)Nc1sc2c(c1C(=O)O)CCCC2,1.1,0.59
CC(=Nc1ccccc1O)c1sc2ccccc2c1O,.,-1.9
N=c1oc2ccc(Br)cc2cc1C(=O)Nc1cccc(C(F)(F)F)c1,.,-0.67
CCO/C=C1\N=C(c2ccccc2)OC1=O,1.5,.
COc1ccc(C2CC(c3ccc(Br)cc3)=NN2C(=O)CCN2CCOCC2)cc1 (stereo not drawn),-0.1,-0.015
O=C1/C(=C/c2ccco2)SC(=S)N1CCc1ccccc1,1.3,.
Cc1cc(COC(=O)C23CCC(=O)N2c2ccccc2C(=O)N3C)no1 (stereo not drawn),0.95,.
OC1C2CN3CCN(C2)CC1(c1ccccc1)C3 (stereo not drawn),1.5,-0.11
CN(C)c1nc(N(C)C)nc(N(C#N)CN2C(=O)c3ccccc3C2=O)n1,-0.15,.
Cc1ccc(N2C(=O)/C(=C/c3ccc4c(c3)OCO4)N=C2SCC(=O)Nc2cc(C)on2)cc1,2.3,.
CN(C)C=Nc1ccccc1I,-0.65,.
CC(=O)NCCn1c(SCC(=O)c2ccccc2)nc2ccccc2c1=O,-0.8,-0.41
CC(C)c1ccc(C#N)c(SCC(=O)Nc2ccc(C(=O)O)cc2)n1,.,0.58
O=C(Oc1cccc2ccccc12)c1ccccc1,-0.75,3.8
N#CC1=C(N)Oc2n[nH]c(-c3cccc([N+](=O)[O-])c3)c2C1c1ccccc1OC(=O)N1CCOCC1 (stereo not drawn),.,0.21

The list goes on.
compound	AID504770	Ba CapD inh
COc1ccc(-c2nc(-c3c(OC)cc(OC)cc3OC)[nH]c2-c2ccc(OC)cc2)cc1	.	42
COc1ccc(S(=O)(=O)NCc2cc(-c3ccccc3Cl)no2)cc1	.	-0.09
Cc1ccc(CCC(=O)NC2CCc3ccccc3C2)o1 (stereo not drawn)	0.35	.
CSc1cnn(-c2ccccc2)c(=O)c1SC	1.7	-1.4
S=C(NC1CCCC1)N1CCN(c2ccccc2)CC1	-0.8	-0.43
Cc1cc(C)cc(NC(=O)C2CC(=O)NC(=NCc3ccccc3)N2)c1 (stereo not drawn)	1.2	-0.88
Cc1cc(C)nc(C(=O)N/N=C/c2cc(C)n(C3CCCC3)c2C)n1	-0.35	.
CC1CCN(c2cc(N3CCN(C(=O)c4ccc(F)cc4F)CC3)c([N+](=O)[O-])cc2F)CC1	.	-0.48
CC(C(=O)Nc1cccc(Cl)c1)N1CCNC(=O)C1 (stereo not drawn)	-1.3	.
CN(CC(=O)Nc1ccc(F)cc1)C(=O)CSc1ccc2c(c1)OCCO2	2	.
COC(=O)C1=C(O)/C(=C/c2ccc(O)cc2)SC1=Nc1ccccc1	-0.1	-0.23
O=C(Nc1ccc(F)cc1)C1CC(=O)N(Cc2ccco2)C1 (stereo not drawn)	2.7	0.12
CC(C(=O)Nc1ccccn1)c1ccccc1 (stereo not drawn)	-0.3	-0.51
Cc1ccc(C(=O)Nc2ccccc2C#N)cc1	-0.65	.
COc1ccc(CNC(=O)c2c(-n3cccc3)sc(C)c2C)cc1	1.1	.
CCOC(=O)C1(C)/C(=N/Nc2ccccc2OC)C(=O)C(=O)N1c1ccccc1 (stereo not drawn)	.	-0.14
CC(C(=O)NCC1CCCO1)n1c2ccccc2c2cnn(C)c(=O)c21 (stereo not drawn)	-0.05	21
Cc1oc2ccccc2c1-c1csc(-c2ccccc2)n1	-0.35	-1.8
O=C(Nc1ccc(N2CCCCS2(=O)=O)cc1)c1ccccc1	-1.5	.
Cn1c(CN2CCOCC2)nc2cc(N)ccc21	-0.15	.
CC(CN1CCCCC1)OC(=O)c1ccc2c(c1)OCO2 (stereo not drawn)	-0.45	.
O=C1CN(C(=O)Cn2cc(C(F)(F)F)ccc2=O)c2ccccc2N1	-0.15	.
Cc1cc(C)n(CCC(=O)N2CCN(S(=O)(=O)c3ccccc3)CC2)n1	1.1	.
CCc1ccc(N2C(=O)/C(=C/c3ccc(OCC(=O)OC)c(OC)c3)C(=O)NC2=S)cc1	.	-0.14
CCCc1cnc(N2CCN(S(C)(=O)=O)CC2)nc1	0.45	11
CC(=O)Nc1c2c3c(cccc3n(C)c1=O)C(=O)c1ccccc1-2	.	8.8
OC1CCCN(Cc2cccc3ccccc23)C1 (stereo not drawn)	-0.15	0.12
N#Cc1ccc(NC(=O)Nc2ccccc2)cc1	-1.7	-0.035
Cc1ccc(NC(=O)C2CC(=O)N(C(C)C)C2)cc1 (stereo not drawn)	-0.5	0.045
O=C(COC(=O)c1cccnc1Cl)c1ccccc1	0.3	.
O=c1c(=NO)c(=O)c2ccccc12	2.2	-5.4*
O=[N+]([O-])c1cnc2ccccn12	.	-1.7
N#Cc1ccc(OCc2ccc(Cl)cc2)cc1	.	1.7
COc1cc(/C=C2\C(=O)N(c3ccc(S(N)(=O)=O)cc3)N=C2C(F)(F)F)ccc1OCc1ccc(Cl)cc1	.	-0.51
CC(C)c1ccc(NC(=O)c2ccc3snnc3c2)cc1	0.8	-0.28
CCCCCCCc1ccc(C2C(C#N)=C(C)NC3=C2C(=O)c2ccccc23)cc1 (stereo not drawn)	.	-0.64
N#C/C(=C\Nc1ccc(C(N)=O)cc1)c1nc(-c2ccccc2)cs1	0.2	-0.45
COc1cc([C@@H]2[C@@H](C(=O)c3ccc(C)cc3)N3c4ccc(Cl)cc4C=C[C@@H]3C2(C#N)C#N)cc(OC)c1OC	.	-0.09
CN(Cc1ccccc1)C(=O)CN1C(=O)c2cccnc2Oc2ccc(Cl)cc21	-1.2	0.27
Cn1cc(CNC(=S)NCc2ccc(Cl)cc2)cn1	-0.4	0.53
CCCN1CCN(c2ncnc3sc(C(=O)Nc4cc(OC)c(OC)c(OC)c4)c(C)c23)CC1	.	-0.015

Assay outcomes deposited in PubChem by ICCB-Longwood Screening Facility, Harvard Medical School.
